# gsp ag: agonists of gsp mutant (McCune-Albright syndrome). actives 0.13% (n = 340,000). gsp mutant cells, cAMP HTRF, 30 min; control for the full effect not named in the record. Potency, µM (titrated, usually from 76.9 µM), for inactives: at the highest dose activation (cAMP increase), most hits filed as activators; active = well fitted activation curve with a large enough effect; inconclusive = small, poorly fitted or top-dose-only effect, or another doubt; inactive = no such curve, though single readings can be large or run the other way; cell line not stated here;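 note: phosphodiesterase inhibitor Ro 20-1724 added with compounds to block cAMP breakdown; potency is the fitted concentration of half-maximal effect; nearly all actives have a fitted effect of over 60% in size; about a fifth of the inactives were tested at one dose only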
#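 Cells stably selected in G418 were plated at 2000/well, grown 16-24 hr, then given compounds in DMSO with the PDE inhibitor […] (300 uM solution added) for 30 min at 37C; cAMP was read by HTRF.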
# Menin-MLL FL inh: menin-MLL binding inhibition, fluorescein peptide; Fluorescence polarization, fluorescein-MLL peptide displacement from menin; FP activity change, % at 61.4 µM; 290,000 tested, under 10 active; AID 1766; inconclusive = falling polarisation curve, or a change in total fluorescence; inactive = total fluorescence flat and polarisation flat or rising; no compound was filed as active; the % refers to the polarisation; negative = inhibition;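 note: % of control where 0% means no effect; inhibitors lower the polarisation; unlabelled MLL peptide was the positive control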
# TRPV1 PAM: human TRPV1 potentiation; Q8NER1; TRPV1-expressing cells, Fluo-8 calcium influx, capsaicin EC20 potentiation; host cell line not named in the record; control for the full effect not named in the record; potentiation, % at 8.33 µM; actives 0.02% (n = 320,000); AID 540277; active means potentiation above 80%; inconclusive means 30% to 80%; inactive means below 30%; note: 0% is about no effect
# Target sequence (Q8NER1 whole entry, looked up): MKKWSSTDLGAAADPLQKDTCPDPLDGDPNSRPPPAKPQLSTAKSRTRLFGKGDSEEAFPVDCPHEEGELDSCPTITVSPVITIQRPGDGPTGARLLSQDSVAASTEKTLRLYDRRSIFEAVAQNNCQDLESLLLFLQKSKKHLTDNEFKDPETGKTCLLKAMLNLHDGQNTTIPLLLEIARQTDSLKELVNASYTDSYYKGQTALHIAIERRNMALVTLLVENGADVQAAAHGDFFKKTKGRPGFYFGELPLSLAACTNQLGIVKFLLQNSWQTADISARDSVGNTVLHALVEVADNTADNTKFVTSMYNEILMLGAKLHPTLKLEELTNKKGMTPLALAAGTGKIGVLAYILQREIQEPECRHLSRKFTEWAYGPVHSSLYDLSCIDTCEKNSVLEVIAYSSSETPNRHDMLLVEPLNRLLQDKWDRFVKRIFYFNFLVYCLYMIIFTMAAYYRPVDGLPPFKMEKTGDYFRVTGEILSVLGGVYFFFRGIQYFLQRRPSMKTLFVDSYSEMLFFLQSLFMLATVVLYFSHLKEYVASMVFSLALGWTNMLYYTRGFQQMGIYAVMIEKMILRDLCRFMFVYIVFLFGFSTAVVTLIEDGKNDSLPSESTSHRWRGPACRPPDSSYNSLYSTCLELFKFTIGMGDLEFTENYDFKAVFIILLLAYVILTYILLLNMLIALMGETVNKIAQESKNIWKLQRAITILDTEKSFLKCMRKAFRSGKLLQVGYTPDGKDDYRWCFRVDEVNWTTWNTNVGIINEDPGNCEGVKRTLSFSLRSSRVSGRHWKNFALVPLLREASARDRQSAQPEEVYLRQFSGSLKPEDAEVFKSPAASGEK
#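 Fluo-8 calcium influx in TRPV1-expressing cells, kinetic read (ex 480/em 520 nm). Compound added and read 3 min for agonist activity, followed by capsaicin at EC20 final and 2 min further read for enhancement.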
# D2 potentiator: potentiates the human D2 dopamine receptor allosterically. P14416. DiscoveRx D2 beta-arrestin cells, luminescence, 90 min; 100% = 57 uM dopamine signal. potentiation, % (test concentration not listed). actives 0.23% (n = 360,000); active = potentiation of 50% or more; inconclusive = 30% to 50%; inactive = 30% or less;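 note: compound concentration not given in the record; tested on top of an EC20 dose of dopamine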
#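 D2 cells co-treated with compound plus 50 nM dopamine (EC20) for 90 min at 37 deg C to detect potentiation. Beta-arrestin recruitment was read as enzyme-fragment luminescence after 1 h at ambient temperature. Full response was set by 57 uM dopamine.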
# Sfp inh: inhibitors of Bacillus subtilis Sfp phosphopantetheinyl transferase; Q9F4F7; Potency, µM, inactives show max response, negative = inhibition, actives largely listed as inhibitors; AID 1490; Biochemical Sfp PPTase activity, qHTS; actives 3.5% (n = 310,000); active = well fitted inhibition curve with a large enough effect; inconclusive = small, poorly fitted or top-dose-only effect, or another doubt; inactive = no such curve, though single readings can be large or run the other way;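 note: the enzyme is Sfp with the accession as filed and its product quenches rhodamine fluorescence; potency is the fitted concentration of half-maximal effect; 0% = enzyme reaction without inhibitor and -100% = no enzyme wells; top concentration of the series not given in the record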
#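 Compounds were incubated with enzyme (final 15 nM) for 15 min at room temperature before substrate addition started the reaction. Fluorescence at 525 nm excitation, 598 nm emission was recorded immediately and after 30 minutes.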
# gsp antag: antagonizes gsp, the McCune-Albright syndrome mutation; gsp-mutant cells, cAMP HTRF, 30 min; control for the full effect not named in the record; actives 0.4% (n = 340,000); Potency, µM (highest dose often 76.9 µM), inactives show at the highest dose activity change, negative = inhibition, actives largely listed as inhibitors; active = falling curve of any shape with a large fitted effect; inconclusive = falling curve, mostly with a smaller effect; inactive = flat or rising curve; cell line not stated here;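 note: intracellular cAMP measured with PDE inhibitor Ro 20-1724 present during compound exposure; potency is the fitted concentration of half-maximal effect; % is set by controls: 0 for no effect and ±100 for the full control effect; nearly all actives have a fitted effect of over 65% in size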
#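 Measurement of cellular cAMP by homogeneous time-resolved fluorescence following a 30 min compound exposure at 37C. The PDE inhibitor […] was present throughout; the assay buffer was DPBS with 0.05% BSA and 0.005% Tween 20.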
# ClpP mod: qHTS Assay for Activators of ClpP; ATP-dependent Clp protease proteolytic subunit (Bacillus subtilis (strain 168)), P80244; Potency, µM (top dose mostly 57.5 µM), for inactives: at the top dose activity change, negative = active; purified B. subtilis ClpP, FRET peptide cleavage, 20 min; actives 1.9% (n = 340,000); AID 651965, 2013; active = well fitted falling curve with a large enough effect; inconclusive = small, poorly fitted or top-dose-only effect; inactive = no such curve, though single readings can be large or run the other way; note: potency is the fitted concentration of half-maximal effect; the source files actives as falling curves though it sought activators and does not explain the sign; nearly all actives have a fitted effect of over 65% in size; many hits overshoot -100%
# Target sequence (P80244 whole entry, looked up): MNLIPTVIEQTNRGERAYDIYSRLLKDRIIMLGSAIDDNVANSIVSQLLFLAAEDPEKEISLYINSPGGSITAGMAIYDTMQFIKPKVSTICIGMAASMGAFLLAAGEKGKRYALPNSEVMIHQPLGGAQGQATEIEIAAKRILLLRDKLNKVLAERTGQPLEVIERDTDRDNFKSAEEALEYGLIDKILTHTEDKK
#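 ClpP 10 microg/mL final, pH 8 Tris/KCl buffer with BSA, glycerol, Tween-20; compound pinned in; FRET-FV substrate; RT 20 min; Ex320/Em430; ΔFRET vs ADEP 5.8 microM, DMSO, no enzyme.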
# Active calls of the source: *; u = inconclusive; x = not tested or not shown; [ ] = remark or other dose.
SMILES,gsp ag,Menin-MLL FL inh,TRPV1 PAM,D2 potentiator,Sfp inh,gsp antag,ClpP mod
O=C1CCC(C(=O)N2CCOCC2)CN1Cc1cccc(C(F)(F)F)c1 (stereo not given),13%,-0.8,2,-7,6%,9%,2.0%
CCNC(COC(=O)c1ccc([N+](=O)[O-])cc1)C1CCCCC1 (stereo not given),14%,x,x,-22,x,15%,1.1%
CCN1CCN(C(=O)C2CCCN(c3ncnc4c3nc3n4CCCCC3)C2)CC1 (stereo not given),6%,x,11,-12,11%,3%,-1.3%
O=C(CSc1nc2c(c(=O)[nH]1)CCC2)Nc1ccc(F)cc1,24%[15.4 µM],x,8,-1,12%,-12%,x
CCCCN(C(=O)c1ccc(OC(F)(F)F)cc1)c1c(N)n(CCC)c(=O)[nH]c1=O,-6%,1.5,-8,-5,21%,12%,0.3%
O=C(CCNC(=O)c1ccco1)Nc1ccc(N2CCOCC2)cc1,21%[15.4 µM],-2.4,1,-6,16%,-25%,-0.6%
COc1ccc(C/C(N)=N/n2cnnc2)cc1Cl,16%,-1.1,1,9,-6%,9%,-5.7%
N#Cc1ccc(-n2nccc2-c2cnc3n(c2=O)CCS3)cc1,-4%,-3.7,4,-6,22%,6%,-16%
COc1ccc(S(=O)(=O)Nc2ccccc2C(=O)Nc2nc(-c3ccc(F)cc3)cs2)cc1OC,-6%[15.4 µM],-0.2,7,-1,7%,35µM*,16µM*
CCN(CC)S(=O)(=O)c1ccc(N2CC(C(=O)Nc3cccc(C(=O)NC4CC4)c3)CC2=O)cc1 (stereo not given),-47%[inhibitor],x,x,1,x,5%,-2.0%
CC(CCc1ccccc1)NC(=O)CN1CCN(Cc2ccc(Cl)cc2)C1=O (stereo not given),u,-2.0,2,-4,12%,-10%,0.5%
O=C(Nc1ccc(S(=O)(=O)Nc2ncccn2)cc1)c1nn(Cc2ccccc2)c(=O)c2ccccc12,3%[15.4 µM],u,7,7,-8%,u,x
COc1cccc(N2CCN(C(=O)CN(c3cc(C)cc(C)c3)S(=O)(=O)c3c(C)noc3C)CC2)c1,8%,x,u,-10,6%,-13%,-0.1%
Cc1ccc(C)c(N/N=C2\CCCNC2=O)c1,13%,0.1,3,24,-14%,0%,-1.2%
COC(=O)c1cc(=O)nc2sc(-c3ccccc3)nn12,-13%,-1.8,-1,-5,17%,-3%,28µM*
C/C(=N/O)c1no[n+]([O-])c1/C(C)=N\O,-1%[15.4 µM],0.2,10,-1,3%,6%,-0.7%
COc1ccc(C(=O)N2CCN(S(=O)(=O)c3ccc(Cl)cc3)CC2)cc1OC,16%,0.0,-4,-3,4%,2%,-1.4%
COc1ccc(-c2nc(CN3CCN(c4ncccn4)CC3)c(C)o2)cc1C,-3%[15.4 µM],-6.5,-4,2,26%,x,x
Cc1ccc2cccc(OCC(=O)c3cc(C)n(Cc4ccco4)c3C)c2n1,x,u,-4,x,56µM*,x,x
COc1cccc(-c2cc(C(=O)Nc3ccc([N+](=O)[O-])cn3)c3ccccc3n2)c1,1%,2.3,27,-26,-5%,-4%,0.6%
CN(C)c1ccc(C(=S)N2CCN(S(=O)(=O)c3ccccc3)CC2)cc1,-1%,-3.9,11,-9,-6%,-2%,-1.1%
CCOc1ccc(C(C(=O)NC2CCCC2)N(Cc2ccccc2)C(=O)c2nsc(Cl)c2Cl)cc1 (stereo not given),28%,1.6,-4,-1,5%,-23%,0.2%
O=C(CCc1ccccc1)Nc1nc2n(n1)C(c1ccccc1)CC(=O)N2 (stereo not given),2%,9.6,19,-12,15%,8%,-2.2%
CC1(C2(O)CC(c3ccccc3)ON2)CCCCC1 (stereo not given),x,1.6,-12,x,-7%,x,x
COc1ccc(O)c(/C=N/NC(=O)CCC(=O)Nc2cccc(C)c2)c1,7%,1.2,-17,-7,14%,-1%,x
CCOc1ccc(-c2cccc(NS(=O)(=O)c3cccc([N+](=O)[O-])c3)c2)nn1,-66%[inhibitor],x,x,0,x,x,-1.1%
CCOC(=O)N1CCC(NC(=O)c2ccc(CS(=O)c3cccc(Cl)c3)o2)CC1 (stereo not given),26%,x,-9,-7,9%,14%,0.4%
O=C(NCc1ccon1)C1CCC(=O)N(Cc2cccc(C(F)(F)F)c2)C1 (stereo not given),-1%,2.1,2,-10,13%,13%,1.7%
O=C(NCc1ccc(Cl)cc1)c1cnn2ccccc12,3%,4.4,-3,-4,-3%,6%,4.8%
COc1ccc(CNC(=O)c2cccnc2)cc1,6%,1.2,-1,-2,10%,-17%,1.3%
COc1cc(CO)cc(Br)c1OCC(=O)N1CCCCC1,1%,1.9,-28,-4,6%,14%,-0.1%
O=C(Oc1ccc(NC2=NS(=O)(=O)c3ccccc32)cc1)c1cccnc1,-2%,-0.6,9,2,-5%,7%,x
CC(C)NC(=O)N(Cc1ccc(Cl)cc1)Cc1cccs1,-18%,-1.6,-12,-7,3%,-14%,1.0%
O=C(Cc1cccc2ccccc12)Nc1nnc(-c2cccc([N+](=O)[O-])c2)s1,-45%[inhibitor],0.1,-4,-1,u,-6%,-1.3%
Cn1c(CNC2CCCCC2)nc2ccccc21,-11%,2.2,0,-7,16%,15%,0.1%
COc1ccc(CCNC(=O)Cn2c(=O)n(CC3CCCO3)c(=O)c3ccccc32)cc1OC (stereo not given),-36%[inhibitor],-4.7,-10,-9,24%,-3%,-4.7%

# Three compounds already listed, ordered by formula weight, falling:
SMILES,gsp ag,Menin-MLL FL inh,TRPV1 PAM,D2 potentiator,Sfp inh,gsp antag,ClpP mod
O=C(NCc1ccon1)C1CCC(=O)N(Cc2cccc(C(F)(F)F)c2)C1 (stereo not given),-1%,2.1,2,-10,13%,13%,1.7%
COc1ccc(-c2nc(CN3CCN(c4ncccn4)CC3)c(C)o2)cc1C,-3%[15.4 µM],-6.5,-4,2,26%,x,x
Cc1ccc(C)c(N/N=C2\CCCNC2=O)c1,13%,0.1,3,24,-14%,0%,-1.2%

# Next records:
SMILES,gsp ag,Menin-MLL FL inh,TRPV1 PAM,D2 potentiator,Sfp inh,gsp antag,ClpP mod
CC(=O)N1CCC(=NNc2ncc(C(F)(F)F)cc2Cl)CC1,11%[15.4 µM],4.1,-7,-12,u,-10%,-0.3%
CC1(C)CC(CCC(=O)Nc2ccc(S(N)(=O)=O)cc2)C(=O)O1 (stereo not given),u,0.8,-5,-5,8%,7%,3.0%
Cc1c(C(=O)Nc2nccs2)oc2ccccc12,-50%[inhibitor],x,x,-16,x,x,-1.9%
Cc1ccc(NC(=O)CNC(C)c2ccccc2)cc1 (stereo not given),14%[15.4 µM],-3.4,-4,-21,0%,10%,x
COC(=O)c1ccc(C2/C(=C(/O)c3ccc4c(c3)CC(C)O4)C(=O)C(=O)N2Cc2cccnc2)cc1 (stereo not given),u,-8.0,5,5,-13%,9%,-1.9%
CN(C)S(=O)(=O)c1ccc(C(=O)Nc2ccc3ncccc3c2)cc1,-22%,-8.1,-1,3,4%,2%,x
CCCSc1cc(Cl)nc(N)n1,5%[15.4 µM],-1.1,1,1,15%,10%,x
COc1ccc(C(=O)NNC2CC(=O)N(Cc3ccccc3)C2=O)cc1OC (stereo not given),18%,5.7,6,-4,9%,8%,320%
O=C(COc1ccc(Br)cc1Cl)N1CCN(c2ccccn2)CC1,u,x,-4,-7,2%,-11%,-24%
COc1ccc(-c2csc(NC(=O)CN3C(=O)C4CCCCC4C3=O)n2)cc1OC (stereo not given),10%[15.4 µM],x,9,-1,1%,-13%,-0.7%
O=S(=O)(c1ccc(NC(=S)NC23CC4CC(CC(C4)C2)C3)cc1)N1CCCCC1,-2%,x,x,-1,x,x,-1.6%
O=C1CSC(=Nc2ccc(O)cc2)N1,u,11,-8,-30,11%,24%,-0.5%
COc1ccc(COC(=O)C2CCN(C(=O)c3ccc(Cl)cc3)CC2)cc1F,9%,x,1,-17,x,-18%,1.6%
Cc1ccc(S(=O)(=O)N2CCOCC2)cc1C(=O)NCCc1ccc(Cl)cc1,1%,x,x,-1,x,-7%,x
CCOC(=O)c1ccc(N2C(=O)C3CCCN3C2=S)cc1 (stereo not given),-17%,x,-1,-1,x,2%,-1.0%
COc1nccnc1NS(=O)(=O)c1ccc(NC(=S)NC(=O)c2cccnc2)cc1,-21%,-0.1,12,-3,u,-8%,1.7%
O=C(COc1ccccc1[N+](=O)[O-])N1CCC(Cc2ccccc2)CC1,4%[15.4 µM],-2.3,-1,-4,-2%,-12%,x
NC(=O)c1ccc(-n2nnnc2Oc2ccccc2)cc1,-9%,0.9,-2,3,16%,-1%,3.2%
O=C(COc1ccc(F)cc1)N(Cc1ccc(Cl)cc1)C1CCS(=O)(=O)C1 (stereo not given),-49%[inhibitor],0.2,-9,-1,11%,-7%,-1.0%
CCCCNC(=O)NS(=O)(=O)c1ccc(NC(=O)CCC(=O)c2cccs2)cc1,0%,-14,-7,0,13%,12%,x
COc1cccc(CN(C)CC(=O)NCc2ccccc2Cl)c1,16%,4.0,18,-5,u,7%,-2.0%
COc1ccc(NC(=O)CN(C)C(=O)c2cc3c(s2)CCCCC3)cc1,9%,x,-10,1,6%,-6%,2.0%
NC(=O)c1ccccc1NC(=O)COC(=O)CSCc1cccc(Cl)c1,-5%,x,x,-1,x,5%,-17%
CCc1nnc(NC(=O)CN2CCN(c3ccccc3OC)CC2)s1,-5%,1.6,2,-28,u,3%,-11%
Cc1n[nH]c(C)c1S(=O)(=O)N(CC(=O)NC1CCCC1)c1ccc(C(C)C)cc1,0%,-0.2,x,1,24%,-6%,1.6%
CCN(Cc1ccc(NC(C)=O)cc1)CC1CCCN(CCc2cccc(F)c2)C1 (stereo not given),-5%,-0.8,1,-58,-1%,5%,-0.4%
Cc1cc(C)n2nc(SCC(=O)c3cccs3)nc2n1,u,-3.5,-3,-4,14%,1%,x

# Full records, quoted from the list:
# Entry for NC(=O)c1ccc(-n2nnnc2Oc2ccccc2)cc1 : gsp ag = -9%; Menin-MLL FL inh = 0.9; TRPV1 PAM = -2; D2 potentiator = 3; Sfp inh = 16%; gsp antag = -1%; ClpP mod = 3.2%
# Entry for Cc1n[nH]c(C)c1S(=O)(=O)N(CC(=O)NC1CCCC1)c1ccc(C(C)C)cc1 : gsp ag = 0%; Menin-MLL FL inh = -0.2; TRPV1 PAM = x; D2 potentiator = 1; Sfp inh = 24%; gsp antag = -6%; ClpP mod = 1.6%

# Screens: PubChem BioAssay, National Center for Advancing Translational Sciences (NCATS)
